PABP polyA inh – PABP-poly(A) binding inhibition; P11940; PABP-poly(A) RNA binding, fluorescence polarization; inhibition, % at 35 µM; hit rate 1% among 290,000;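 active = 50% or more with normal probe brightness, or confirmed in later tests; inconclusive = above 50% with abnormal brightness, or retests that disagree; inactive = below 50% or failed in later tests; about a fifth of its hits are not listed in these tables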;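 note: calls also rest on retests at 20 µM and on dose response follow-up; controls were probe without protein and protein plus probe with vehicle; some compounds called inactive have numbers as strong as hits; many hits fall short of the cut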
Target sequence (P11940 whole entry, looked up): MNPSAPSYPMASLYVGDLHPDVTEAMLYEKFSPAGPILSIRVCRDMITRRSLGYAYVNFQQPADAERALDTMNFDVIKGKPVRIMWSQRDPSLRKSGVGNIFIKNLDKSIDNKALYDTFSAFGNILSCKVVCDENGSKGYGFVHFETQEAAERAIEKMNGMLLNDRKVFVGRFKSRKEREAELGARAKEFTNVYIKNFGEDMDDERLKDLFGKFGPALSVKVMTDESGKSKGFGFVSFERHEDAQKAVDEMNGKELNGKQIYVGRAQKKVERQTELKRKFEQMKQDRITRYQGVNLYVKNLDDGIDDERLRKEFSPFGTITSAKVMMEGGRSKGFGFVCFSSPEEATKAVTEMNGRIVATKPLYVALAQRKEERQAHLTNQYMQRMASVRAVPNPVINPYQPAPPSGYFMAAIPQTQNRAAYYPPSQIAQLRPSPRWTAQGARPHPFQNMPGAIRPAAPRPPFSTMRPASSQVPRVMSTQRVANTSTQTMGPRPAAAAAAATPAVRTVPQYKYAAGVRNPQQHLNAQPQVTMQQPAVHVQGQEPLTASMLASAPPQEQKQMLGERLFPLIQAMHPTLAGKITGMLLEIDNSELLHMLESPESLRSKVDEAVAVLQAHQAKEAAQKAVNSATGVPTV
HIV Env fusion – HIV envelope-mediated fusion inhibition. HeLa-JRFL Env/CEM21 cell fusion, luciferase. inhibition, % at 12.3 µM. hit rate 1.1% among 360,000;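 active = mean replicate inhibition score of at least 50 and every replicate individually at or above 50; inconclusive = only one of the two criteria met; inactive = mean below 50 and not all replicates reaching 50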;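 note: 0% = plate neutral controls and 100% = maraviroc near 300 nM; one replicate is shown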
Yeast UUG start – modulators of start codon recognition fidelity in yeast; S. cerevisiae UUG-firefly luciferase reporter, luminescence/redox ratio; activity score, % at 18.7 µM; hit rate 0.13% among 350,000;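 active = replicate mean at a twofold rise or more, about +100% in these data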;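 note: firefly luciferase made from a UUG start codon reports start codon fidelity; reporter light over untreated wells divided by growth signal over untreated wells; some hits fall short of that in this replicate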
MT1-MMP act inh – inhibitors of human MT1-MMP activation. AID 651647. HT1080 RFP-PRO-GFP cells, GFP/RFP ratio fluorescence, overnight; percent of plate control window, DMSO zero. hit rate 0.061% among 360,000. GFP/RFP ratio change, % at 20 µM. P50281;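 active = GFP/RFP ratio change of at least 30% with cell ATP level not reduced by more than half and red fluorescence within 50% of control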; note: strong numbers were not always called active
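Read-out: GFP/RFP fluorescence ratio; Test system: RFP-PRO-GFP reporter HT1080 cells; Compound dosing: single-point 20 µM compound, 1% DMSO; Times: overnight compound exposure at 37 °C.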
Rce1 inhib – blocks yeast Ras-converting enzyme. Q03530. AID 2563. calls only. yeast membranes, quenched prenylated peptide cleavage fluorescence. hit rate 0.27% among 290,000;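 active = fall in fluorescence gain of 50% or more versus controls, with final raw signal at or below 3038400; inconclusive = same 50% fall but final raw signal above 3038400; inactive = fall in fluorescence gain under 50%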;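 note: plate controls were neutral control wells for no effect and wells lacking membranes for full effect; tested at 10 µM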
CSC inhib – cancer stem cell inhibition. cancer stem cell-like cells viability, luminescence. inhibition, % at 7.5 µM. hit rate 1.1% among 300,000. AID 2717;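 active = mean at 75% or more and at least half the replicates too; inconclusive = mean and replicates disagree; tested in HMLE shEcad cells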;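 note: 0% = median of negative and 100% = median of positive control wells; the first replicate is given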
eIF4H FP inh – inhibitors of RNA binding by human eIF4H; Q15056; eIF4H fluorescence polarization binding assay; inhibition, % at 35 µM; hit rate 0.94% among 290,000; AID 2012;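 active = 50% or more with normal probe brightness, or confirmed in later tests; inconclusive = above 50% with abnormal brightness, or retests that disagree; inactive = below 50% or failed in later tests; about a fifth of its hits are not listed in these tables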;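 note: calls also rest on retests at 20 µM and on dose response follow-up; 0% = protein and probe with vehicle and 100% = probe without protein; strong numbers were not always called active; many hits fall short of the cut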
MT1-MMP act inh RFP – also measured in MT1-MMP act inh; calls as there; RFP signal change, %; measured here: RFP expression control read;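 0 = vehicle wells; hits needed this value within 50% of zero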
Active calls of the source: *; i = inactive; ? = inconclusive; · = not tested or not shown. Rows are unselected (roughly 2.9% active in at least one column).

SMILES	PABP polyA inh	HIV Env fusion	Yeast UUG start	MT1-MMP act inh	MT1-MMP act inh RFP	Rce1 inhib	CSC inhib	eIF4H FP inh
COc1ccc(C(=O)N2CCCC(CNC(=O)c3ccc(F)cc3)C2)cc1OC (stereo unspecified)	12	-6	-16	-4	2	i	·	-1
C/C(=N\S(=O)(=O)c1ccc(C)cc1)N1CCN(S(=O)(=O)c2ccccc2)C1	1	8	-3	-5	-1	i	-8	-10
C[n+]1cccc2c(Br)ccc([O-])c21	16	-6	-7	2	3	i	-9	19
N#CCSc1nnc(COc2ccc3ccccc3c2)o1	-2	?	-15	1	-8	i	·	-8
O=C(OCC(=O)N1CCCC1=O)c1cc(S(=O)(=O)N2CCOCC2)ccc1F	·	-25	-32	3	4	·	-3	·
O=C(COC(=O)C1CCC1)Nc1cc(S(=O)(=O)N2CCCCC2)ccc1Cl	·	-11	-18	-1	4	i	-13	·
CCc1ccc(-n2c(SCc3c(C)noc3C)nnc2-c2ccncc2)cc1	-12	·	0	1	3	i	-10	-1
NNC(=O)c1csc(-c2ccc(C(F)(F)F)cc2Cl)n1	2	-7	·	-1	6	i	7	1
COc1cccc(-c2nc(CS(=O)(=O)CC(=O)NC3CCCCC3C)c(C)o2)c1 (stereo unspecified)	5	-5	-11	-3	-1	i	9	-3
Cc1ccc(CSC2=NCCN2S(=O)(=O)c2ccc(C)cc2)cc1	·	16	-12	1	0	·	·	·
CNC(=O)CN1C(=O)CSc2nc(C)cc(C)c21	-6	-3	-5	0	7	i	-5	6
CSc1nc(-c2ccc(C)cc2)nc(N)c1C#N	-12	-5	-15	-1	-1	i	1	-10
CC(C)C(=O)Nc1nc2ccc(S(C)(=O)=O)cc2s1	7	12	·	-7	5	·	-2	-6
O=S(=O)(Nc1ccc(-n2cnnn2)cc1)c1cccc(F)c1	·	5	-14	8	3	·	·	·
CCc1cccc(OCCCCNCCO)c1	6	-40	-25	2	8	i	-3	0
Cc1ccc(S(=O)(=O)NCC2CCCO2)cc1 (stereo unspecified)	4	7	-18	2	3	i	-21	-7
CC(=O)Nc1cccc(OCC(=O)NS(=O)(=O)c2ccc(Cl)cc2)c1	8	·	-1	-2	0	i	-4	5
N#Cc1ccc(C(=O)NNC(=O)c2cccc(S(=O)(=O)N3CCOCC3)c2)cc1	·	-139	13	1	2	·	-25	·
O=C(Cn1c(/C=C/c2ccccc2)nc2ccccc21)Nc1ccc(F)cc1	10	-64	-7	14	1	i	-2	0
Cc1ccc(S(=O)(=O)NCc2ccco2)cc1C(N)=O	2	-8	·	4	3	i	-9	-3
Cc1ccc(NC2(C#N)C(=O)Nc3ccccc32)cc1 (stereo unspecified)	0	·	-19	-1	1	i	-8	7
COc1ccc(C(=O)CN2CCN(c3ccc(Cl)cc3)CC2)cc1OC	10	22	-3	0	0	i	8	20
CS(=O)(=O)Nc1ccc(C(=O)Nc2cccc([N+](=O)[O-])c2)cc1	7	2	·	-1	2	i	-7	-7
COc1ccc(-c2cc(C(F)(F)F)n3ncc(C(=O)N4CCCCC4c4cccnc4)c3n2)cc1 (stereo unspecified)	20	-15	·	-6	-4	i	-14	-7
OCC1(Cc2cccc(Cl)c2)CCCN(Cc2sc(N3CCCC3)nc2Cl)C1 (stereo unspecified)	-7	21	-9	-7	-6	i	15	2
NC(=O)[C@H]1CC2(CC(c3cccc(NC(=O)CC(c4ccccc4)c4ccccc4)c3)=NO2)CN1C(=O)c1ccccc1C(=O)c1ccccc1 (stereo partly specified)	-4	7	4	9	-3	i	-10	-4
Cc1[nH]c2ccc(C(=O)N3CCN(C)CC3)cc2c1C	16	-10	-7	0	0	i	2	32
CN(CCO)c1cc(N(C)CCO)c([N+](=O)[O-])cc1[N+](=O)[O-]	2	-35	·	·	·	i	4	-6
CCC1(c2ccccc2)NC(=O)N(CC(=O)Nc2cccc(S(=O)(=O)N3CCCCC3)c2)C1=O (stereo unspecified)	·	8	-3	3	-5	·	·	·
COc1ccc(OC)c(NC(=O)c2c3c(nc4ccccc24)CCC3)c1	7	·	0	7	3	i	-4	4
CCn1cc(C(=O)NC2CCCCC2C)c(=O)c2ccc(C)nc21 (stereo unspecified)	-3	·	-4	-2	2	i	-17	1
CN(C)c1cccc(C(=O)NCC2CCCO2)c1 (stereo unspecified)	4	·	-13	2	9	i	·	3
CCN(CC)S(=O)(=O)c1ccc(-c2nnc(SCc3nnc(-c4ccc(C)cc4)o3)n2CC)cc1	4	-116	-6	5	-5	i	5	-14
C=CCn1c(SC(C)C(=O)NCCC2=CCCCC2)nc2ccccc2c1=O (stereo unspecified)	-7	·	-6	-7	-6	i	-13	-9
CCOc1ccc2nc(NC(=O)c3cc([N+](=O)[O-])ccc3N3CCOCC3)sc2c1	0	12	-3	-4	-20	i	36	-4
CCOC(=O)C1=C(N)Oc2cc(O)ccc2C1c1cccnc1 (stereo unspecified)	-9	-37	-27	-5	-8	i	-19	10
COC(=O)CSc1nnc(SCc2ccc(OC)cc2)s1	14	4	-2	2	3	i	14	5
CCOc1ccccc1NC(=S)N1CCN(c2nc(-c3ccc(F)cc3)cs2)CC1	-8	10	·	-4	-7	i	10	-8
O=C(COC(=O)c1cc([N+](=O)[O-])ccc1NCCO)Nc1cccc(S(=O)(=O)N2CCCC2)c1	·	10	-16	-3	-9	·	5	·
CSc1ccccc1NC(=O)c1cc(Cl)sc1Cl	-1	-21	-10	-3	-1	i	-11	6
Cc1ccc(SCC(=O)NCc2ccncc2)cc1	3	-12	·	1	6	i	12	4
CNC(=S)N=Nc1c(O)[nH]c2ccc(C(C)C)cc12	-3	24	-10	0	-9	i	4	6
O=C(CN1CCOCC1)NCc1ccccc1	0	·	-41	-4	1	i	·	0
O=C(Cc1n[nH]c(=O)c2ccccc12)OCC(=O)c1ccc(F)c(F)c1	·	-5	-11	4	1	i	·	·
Cc1cnc(C(=O)Nc2nnc(C)s2)cn1	1	-9	·	3	8	i	-8	1
COC(=O)C1=C(C)N(c2ccc(Br)cc2)C(=O)/C1=C\c1ccco1	13	3	-5	-2	-2	i	-2	2
Cn1c(=S)ccc2ccccc21	-1	0	·	2	5	i	-3	-18
CC(NS(=O)(=O)c1ccccc1)C(c1cccs1)N1CCN(C)CC1 (stereo unspecified)	7	-17	-1	-3	0	i	·	7
Cc1cccc(NC(=S)NC23CN4CN(CN(C4)C2)C3)c1C	0	8	·	1	3	i	-17	0
CS(=O)(=O)N(CC(=O)NCC1CCCO1)c1ccc(Cl)c(Cl)c1 (stereo unspecified)	-10	·	5	1	1	i	-7	-7
Cc1cc2nc(C(F)(F)F)cc(-c3cccs3)n2n1	-6	2	·	2	-2	i	-3	-8
CC(C)CCSc1nc2c(c(=O)[nH]c(=O)n2C)n1CCCc1ccccc1	-9	47	-22	1	-4	i	12	0
COC(=O)c1ccc(CSc2nnc(C)s2)cc1	-5	·	-4	0	-1	i	1	-8
OCCC1CN(CCCc2ccccc2)CCN1Cc1ccc(F)cc1 (stereo unspecified)	12	-12	-17	0	7	i	21	-9
COc1cc(CNC(=O)CCCC/C=C/C(C)C)ccc1O	·	-1	-15	3	-4	·	21	·
CC(=NOC(=O)c1ccc(Cl)cc1)c1nccs1	·	-4	-47	2	3	·	·	·
Cc1[nH]n(-c2ccc([N+](=O)[O-])cc2)c(=O)c1C=NCCN1CCN(C(=O)c2ccccc2)CC1	-8	-68	-2	0	-1	i	58	36
CC(=O)C1CCC2C(CCC3=CC(=O)CCC32)C1 (stereo unspecified)	·	-64	5	-1	2	·	·	·
CCCS(=O)(=O)NC(=O)C1(C)CCN(C(=O)COc2ccc(Cl)cc2Cl)C1 (stereo unspecified)	·	56*	-13	3	4	·	·	·
CCOC(=O)/C(=C/c1ccc(OC(=O)c2ccncc2)cc1)C(C)=O	-13	6	·	1	2	i	12	4
The listing continues.
SMILES	PABP polyA inh	HIV Env fusion	Yeast UUG start	MT1-MMP act inh	MT1-MMP act inh RFP	Rce1 inhib	CSC inhib	eIF4H FP inh
CC(NC(=O)Nc1ccccc1O)(C(F)(F)F)C(F)(F)F	5	·	6	2	-1	i	-4	17
Cc1[nH]c(=O)c(C#N)c2c1COC(C)(C)C2	-3	·	-10	1	6	i	-10	-6
COc1cc(C(=O)Oc2ccc(Br)cc2C(=S)N2CCOCC2)cc(OC)c1OC	11	0	-6	2	4	i	-4	-8
CC(NC(=O)COC(=O)Cc1ccsc1)C1CC2CCC1C2 (stereo unspecified)	9	-6	12	3	7	i	7	6
O=C(c1ccco1)N(Cc1cccnc1)C(c1ccccc1)c1nc2ccccc2[nH]1 (stereo unspecified)	·	-279	-12	-1	4	·	·	·
CCCC(=O)N(Cc1cc2cccc(C)c2[nH]c1=O)c1ccccc1OC	-2	-20	-37	1	1	i	-6	-6
Cn1c(=O)n(C)c2cc(S(=O)(=O)N3CCN(c4ccccc4)CC3)ccc21	5	-9	0	2	-3	i	-3	14
COc1ccc(CNC(=O)COC(=O)c2cc(C)oc2C)cc1	·	3	-5	-6	3	·	·	·
CCOC(=O)C1CCCN(C(=O)c2ccc(CS(=O)(=O)c3ccc(Br)cc3)o2)C1 (stereo unspecified)	-4	8	-6	0	5	i	2	-6
Cc1ccc(C)c(OCCC(=O)OCC(=O)c2c(N)n(C)c(=O)n(C)c2=O)c1	·	?	·	2	0	i	-4	·
CC(C)C(=O)Nc1ccc(C(=O)Nc2ccc(Br)cc2F)cc1	-1	-12	·	9	2	i	-12	-1
O=[N+]([O-])c1cc(C(F)(F)F)ccc1N1CCC(O)CC1	-2	-39	·	0	-2	i	-9	9
Cc1ccc(S(=O)(=O)N2CCCCC2)cc1C(=O)N1CCCC1	8	?	-15	1	0	i	-1	9
COc1ccc(S(=O)(=O)NCC(c2cccnc2)N2CCN(Cc3ccccc3)CC2)cc1C (stereo unspecified)	5	-10	-9	-4	-4	i	7	-6
CCCCCCCCCCCC(=O)NC(C(=O)O)C(O)c1ccccc1 (stereo unspecified)	10	1	-6	3	3	i	-5	7
Cc1c(C(=O)NCc2ccccc2C(F)(F)F)sc(=O)n1Cc1ccc(S(=O)(=O)N(C)C)cc1	·	18	-25	1	-19	·	·	·
Cc1cccc(N2CCN(CC(=O)NCC3CCCCC3)CC2)c1C	7	·	-17	8	-3	i	15	-3
CCCCNc1nc2c(S(=O)(=O)c3ccccc3)nnn2c2ccccc12	10	16	-22	0	4	i	-10	1
CCOC(=O)Cc1csc(NC(=O)CSc2ncnc3c2cnn3-c2ccc(OC)cc2)n1	-6	·	-12	-3	-10	i	11	-12
CCCN(CCC)c1ncnc2c1cnn2-c1ccc(OC)cc1	-3	·	-38	1	-5	i	55	10
Cc1cc(C)n(C(=O)c2ccc(C)o2)n1	-6	-74	-9	2	7	i	-9	-1
COc1ccc(C2CC(=O)C3=C(C2)NC(C)=C(C(=O)Nc2ccccc2C)C3c2coc3ccc(C)cc3c2=O)cc1OC (stereo unspecified)	-7	34	-12	-61	-22	·	20	7
O=C(CSc1nnc(-c2ccccc2)o1)NC1CCCCC1	2	9	11	2	2	·	-8	-3
CC(=O)Oc1ccc(Nc2ccccc2)cc1	6	21	·	-8	-7	i	64	-5

Complete entries from above.
C=CCn1c(SC(C)C(=O)NCCC2=CCCCC2)nc2ccccc2c1=O (stereo unspecified) as listed: PABP polyA inh: -7; HIV Env fusion: ·; Yeast UUG start: -6; MT1-MMP act inh: -7; MT1-MMP act inh RFP: -6; Rce1 inhib: i; CSC inhib: -13; eIF4H FP inh: -9
CNC(=O)CN1C(=O)CSc2nc(C)cc(C)c21 as listed: PABP polyA inh: -6; HIV Env fusion: -3; Yeast UUG start: -5; MT1-MMP act inh: 0; MT1-MMP act inh RFP: 7; Rce1 inhib: i; CSC inhib: -5; eIF4H FP inh: 6

Assay outcomes as filed in PubChem BioAssay.
